Bioassay records: PubChem, National Center for Advancing Translational Sciences (NCATS)
MARV entry inh – Marburg virus entry inhibition. Marburg virus pseudotyped entry inhibition, cell reporter; control for the full effect not named in the record; about a third of the inactives were read at about 46 µM. Potency, µM (top dose mostly 37.8 µM), inactives show at the top dose activity change, negative = inhibition, actives largely listed as inhibitors. 300,000 tested, 1.8% active; active = well fitted inhibition curve with a large enough effect; inconclusive = small, poorly fitted or top-dose-only effect, or effect the other way; inactive = flat fitted curve, though single readings scatter; tested in HEK293 cells; about a fifth of its hits are not listed in these tables; also: % is scaled to controls: 0 for no effect and ±100 for the full control effect; luciferase read-out
Cruzain inh noDet – blocks cruzain activity in detergent-free assay; Potency, µM, for the others: max response, negative = inhibition, actives largely listed as inhibitors; purified cruzain, Z-FR-AMC fluorescence, no detergent; AID 1476; P25779; 200,000 tested, 2.3% active; active = well fitted curve in the direction sought with a large enough effect; inconclusive = small, poorly fitted or top-dose-only effect, or another doubt; inactive = no such curve, though single readings can be large; an effect the other way counts as inactive or inconclusive;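 also: plate controls were enzyme without inhibitor for no effect and buffer without enzyme for full effect; nearly all actives have a fitted effect of over 40% in size; top concentration of the series not given in the record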
Target sequence (P25779 123-467 limits assumed): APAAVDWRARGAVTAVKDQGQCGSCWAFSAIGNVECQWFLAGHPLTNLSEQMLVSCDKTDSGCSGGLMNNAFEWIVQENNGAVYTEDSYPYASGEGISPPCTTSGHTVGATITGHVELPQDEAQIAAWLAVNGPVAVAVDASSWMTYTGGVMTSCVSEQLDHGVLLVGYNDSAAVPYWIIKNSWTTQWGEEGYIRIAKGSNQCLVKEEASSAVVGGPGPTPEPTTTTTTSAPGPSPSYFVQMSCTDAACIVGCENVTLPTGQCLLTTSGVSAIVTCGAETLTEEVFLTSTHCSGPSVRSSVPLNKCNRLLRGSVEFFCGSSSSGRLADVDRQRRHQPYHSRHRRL
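Purified cruzain at 1.5 nM, pre-incubated 15 min with compound at room temperature in 100 mM sodium acetate pH 5.5, 5 mM DTT, 0.00005% Triton X-100. Reaction started with 2 uM Z-FR-AMC; AMC fluorescence increase over 60 s gives rate.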
StopGo reporter – FMDV 2A StopGo reporter, luciferase signal; AID 1159524; human cells with a luciferase reporter of 2A StopGo recoding; control for the full effect not named in the record; 410,000 tested, 1.2% active; Potency, µM (doses to about 57.9 µM), for the others: at the top dose signal change, negative = less light; active = well fitted falling curve with a large enough effect; inconclusive = small, poorly fitted or top-dose-only effect; inactive = no such curve, though single readings can be large or run the other way; tested in HEK293T cells; also: % is scaled to controls: 0 for no effect and ±100 for the full control effect; nearly all actives have a fitted effect of over 45% in size; luciferase light after 4 h
RE007 growth inh – less growth of the S. pombe RE007 Vpr strain; S. pombe RE007 Vpr strain, BacTiter-Glo ATP luminescence, 24 h; control for the full effect not named in the record; Potency, µM (doses to about 92.2 µM), inactives show top-dose activity change, negative = less growth; 360,000 tested, 0.21% active; active = well fitted falling curve with a large enough effect; inconclusive = small, poorly fitted or top-dose-only effect; inactive = no such curve, though single readings can be large or run the other way;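 also: % is scaled to controls: 0 for no effect and ±100 for the full control effect; nearly all actives have a fitted effect of over 50% in size; the assay follows cell death caused by Vpr and the record does not say whether a fall means rescue or toxicity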
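Fission yeast strain RE007, carrying one chromosomally integrated HIV-1 vpr copy, was seeded at OD 0.01 in PMG+AL medium with 23 nL pinned compound. After 24 h at 30 °C and 99% humidity, viability was read by BacTiter-Glo luminescence.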
Cruzain Triton – inhibitors of Trypanosoma cruzi cruzain with detergent; AID 1478; Potency, µM, without a hit: max response, negative = inhibition, hits mostly inhibitors; P25779; 200,000 tested, 0.43% active; purified cruzain, Z-FR-AMC fluorescence, 0.01% Triton; active = well fitted curve in the direction sought with a large enough effect; inconclusive = small, poorly fitted or top-dose-only effect, or another doubt; inactive = no such curve, though single readings can be large; an effect the other way counts as inactive or inconclusive;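 also: plate controls were neutral wells for no effect and buffer without enzyme for full effect; nearly all actives have a fitted effect of over 40% in size; top concentration of the series not given in the record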
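In this qHTS format, compounds are incubated with 1.5 nM cruzain for 15 min at room temperature before 2 uM Z-FR-AMC is added. Release of AMC is followed at 360/450 nm, and progress is taken as the 60 s fluorescence difference.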
NS1 inh – influenza NS1 inhibition | 270,000 tested, 0.4% active | Potency, µM (doses to about 46.1 µM), without a hit: at the highest dose activity, positive = more growth | S. cerevisiae slowed by influenza A NS1, growth recovery by OD600 | AID 2326; also: actives are rising curves; nearly all actives have a fitted effect of over 50% in size
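Compounds were scored for reversing the slow growth caused by influenza A NS1 in S. cerevisiae, measured by optical density at 600 nm. Assay medium contained 2% galactose at pH 6.0; NS1-free yeast of the same strain were the positive control.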
LASV entry inh – blocks Lassa virus binding to or entry into cells; Lassa virus pseudotype entry inhibition, cell reporter; control for the full effect not named in the record; Potency, µM (top dose mostly 37.9 µM), for the others: top-dose activity change, negative = inhibition, hits mostly inhibitors; 300,000 tested, 1.2% active; active means well fitted inhibition curve with a large enough effect; inconclusive means small, poorly fitted or top-dose-only effect, or effect the other way; inactive means flat fitted curve, though single readings scatter; tested in HEK293 cells; also: % is scaled to controls: 0 for no effect and ±100 for the full control effect; nearly all actives have a fitted effect of over 50% in size; luciferase read-out
SARS PLpro yeast – SARS-CoV PLP inhibition in yeast. Potency, µM (doses to about 32.9 µM), inactives show at the top dose activity, positive = growth rescue. 330,000 tested, 0.19% active. S. cerevisiae expressing SARS-CoV PLpro, growth rescue; control for the full effect not named in the record. AID 485353; also: 0% is about no effect; nearly all actives have a fitted effect of over 55% in size; growth read by luminescence after 48 h
The depositor's hits bear a star; u = inconclusive; x = no result given; & = joins results of further samples; [ ] = another dose, or the depositor's remark. Unless noted, calls follow the shape of the dose curve; as a rule, active means well fitted rising curve with a large enough effect; inconclusive means small, poorly fitted or top-dose-only effect; inactive means no such curve, though single readings can be large or run the other way. Potency is read from the fitted curve at half-maximal effect.

SMILES	MARV entry inh	Cruzain inh noDet	StopGo reporter	RE007 growth inh	Cruzain Triton	NS1 inh	LASV entry inh	SARS PLpro yeast
O=C1CN(C(=O)CSc2nc3ccccc3c(=O)n2CCCN2CCOCC2)c2ccccc2N1	x	x	-19%	-15%	x	1%	x	0%
COc1ccc(NC(=O)CSCC(=O)Nc2nnc(CC(C)C)s2)cc1	u	x	-9%	11%	x	x	0%	1%
CC1(C)CC(=O)C(C(c2cccc([N+](=O)[O-])c2)C2C(=O)CC(C)(C)CC2=O)C(=O)C1	12%	-7%	2%	-11%	0.9%	-10%	2%	16%
CC(NC(=O)Cn1cccc1)c1ccccc1 (stereo not drawn)	1%[46.1 µM]	x	4%	9%	x	4%	-14%[46.1 µM]	1%
O=C(c1ccccc1)c1ccc(N2CCNCC2)cc1	2%	-11%	x	x	7.4%	-7%	x	-1%
O=C(CCSc1ccccc1)N1CCN(c2ccccc2F)CC1	u	x	20%	0%	x	-34%	u	-2%
CN(CC(=O)Nc1ccc2c(c1)OCO2)S(=O)(=O)c1ccc2c(c1)CCC(=O)N2	-1%[46.1 µM]	x	3%	8%	x	2%	3%	2%
CC1CN(C(=O)C(C)N2CCN(c3ccccc3Cl)CC2)CC(C)O1 (stereo not drawn)	-14%[46.1 µM]	x	0%	10%	x	x	-1%	1%
O=C(CCCOc1ccc(Br)cc1)NCCc1ccc(OC(F)F)cc1	8%	x	-6%	17%	x	-25%	-26%	-1%
CC1(C)CC(=O)c2sc(NS(C)(=O)=O)nc2C1	u	-15%	-18%	2%	-3.9%	-6%	6%	x
COc1ccc(S(=O)(=O)c2c(O)c(C)cc(NC(=O)c3ccccc3)c2C(C)C)cc1	-16%[46.1 µM]	-17%	-2%	x	-3.0%	x	-6%[46.1 µM]	x
CC1C2(C)OC(=N)C(C#N)(C(C)O2)C1(C#N)C#N (stereo not drawn)	9%[46.1 µM]	x	11%	4%	x	5%	9%[46.1 µM]	0%
COc1ccc(-c2oc3cccnc3c2C#CC2(O)CCCCC2)cc1	x	x	-29%	9%	x	-41%	x	-9%
CCOC(=O)NC(CC(=O)O)c1ccc(OCC)cc1 (stereo not drawn)	-25%	-5%	21%	1%	-1.6%	1%	13%	-2%
COc1ccc(C(=O)NN2C(=S)N(c3ccc(OC)cc3)C(=O)C2CC(N)=O)cc1 (stereo not drawn)	4%	x	-8%	-11%	x	2%	-14%	-4%
O=C(Nc1nc(-c2ccc3c(c2)Cc2ccccc2-3)cs1)c1ccccc1	-19%	20µM*	-24%	-7%	-0.3%	14%	-2%	13%
COc1ccc(NC(=O)CCC(=O)Nc2nnc(C(C)C)s2)cc1Cl	x	x	-7%	-1%	x	-1%	x	-5%
Cc1nn(C(C)C(=O)N2CCOCC2)c(C)c1[N+](=O)[O-] (stereo not drawn)	u	-1%	7%	1%	1.7%	5%	12%	15%
C=CCC1NS(=O)(=O)OC2CCCC12 (stereo not drawn)	x	x	-10%	0%	x	10%	x	6%
Cc1cnc(CN(C)C(=O)c2ccc3oc(Cc4ccccc4)nc3c2)[nH]1	u	x	-3%	3%	x	-3%	-13%	1%
CCn1c(C)nc2cc(C(=O)N/N=C/c3ccc(OC)cc3)ccc21	u	x	4%	-16%	x	x	-20%	0%
C/C(N)=C(/C#N)C(=O)CSc1cc(C)c2ccccc2n1	4%	x	0%	9%	x	-7%	2%	0%
Cc1ccc(C(=O)N2CCc3cc(CNC(=O)c4ccccc4F)ccc32)cc1	x	-5%	-24%	x	-3.9%	x	-18%[46.1 µM]	x
COc1cc(/C=C2\CCC(C)C3=C(c4cc(OC)c(OC)c(OC)c4)C(C#N)=C(N)OC32)cc(OC)c1OC (stereo not drawn)	u	x	u	-18%	x	x	11µM*	x
COc1ccc(N(CC(=O)Nc2cccnc2)S(=O)(=O)c2ccccc2)cc1Cl	u	x	7%	-4%	x	u	-11%	-2%
N#C/C(C(=O)N1CCOCC1)=C1\Nc2ccccc2S1	13%	1%	89%[activator]	-19%	-9.3%	-39%	10%	-9%
CN(C(=O)c1ccccc1C(=O)OCC(=O)NC(=O)NC(C)(C)C)C1CCCCC1	5%[46.1 µM]	x	-9%	1%	x	6%	7%	1%
COc1ccc(CCNC(=O)c2noc3c2CCCC3)cc1OC	-2%	-8%	-2%	u	2.8%	-2%	-1%	-2%
O=C(NCc1ccco1)C1CCC(CNS(=O)(=O)c2cccc3cccnc23)CC1 (stereo not drawn)	-4%	-3%	12%	-1%	1.7%	-5%	x	-2%
CCOc1ccc(-c2cc3nc(C4CCN(C(=O)OC(C)(C)C)CC4)c(C(=O)Nc4cc(OC)ccc4OC)cn3n2)cc1	u	u	-6%	x	-9.1%	x	-24%[46.1 µM]	x
COC(=O)CCC(=O)Nc1ccc(NC(C)=O)cc1	30%	5%	-18%	2%	1.7%	-8%	3%	-2%
CN(NC(=O)CN1C(=O)c2ccccc2C1=O)C1=NS(=O)(=O)c2ccccc21	19%[46.1 µM]	x	-14%	-5%	x	x	-9%[46.1 µM]	-1%
Cc1cccc(N2CN(Cc3cccnc3)CNC2=S)c1	4%	-2%	-6%	-4%	0.3%	16%	22%	5%
Cc1cccc(NC(=O)Cn2c(=O)oc3ccccc32)n1	1%[46.1 µM]	x	10%	-10%	x	-9%	8%[46.1 µM]	-1%
O=C(NCCS(=O)(=O)N1CCN(c2ccccc2F)CC1)c1ccccc1C(F)(F)F	x	5%	-11%	x	-1.6%	x	6%[46.1 µM]	x
COc1ccc(CC(=O)NCC(c2ccc(Cl)cc2)N2CCOCC2)cc1 (stereo not drawn)	14%[46.1 µM]	-7%	-1%	x	-1.9%	x	1%[46.1 µM]	x
CC(=O)NC(c1ccc(C)cc1)c1cc(Cl)c2cccnc2c1O (stereo not drawn)	2.8µM*	x	-19%	-18%	x	-41%	u	u
O=C(NCc1ccco1)C1CCN(C(=O)N2CCOc3ccc(Cl)cc32)CC1	x	-7%	-14%	x	-2.3%	x	2%[46.1 µM]	x
COCCCNc1oc(-c2ccccc2F)nc1C#N	x	7%	20%	11%	-12%	-13%	x	-7%
CC(=O)N1CCc2cc(C(=O)CN3CCN(C(=O)c4ccco4)CC3)ccc21	x	-4%	-13%	0%	-22%	3%	x	4%
CCCCC1=CC2=C(c3ccco3)C(=O)C(C)(OC(=O)c3ccc(OC)cc3)C(=O)C2=CN1c1ccc(OC)cc1 (stereo not drawn)	-17%&-17%[14.2 µM]	x	-17%	-18%	x	10%	x	3%
COc1ccc2[nH]c(=O)c(CN(C(C)=O)C3CCCCC3)cc2c1	-1%	1%	x	7%	4.2%	-6%	-1%	-6%
c1ccc(CSc2nncn2-c2ccccn2)cc1	12%	4%	21%	-6%	-1.0%	-1%	1%	13%
COc1ccc(NC(=O)CC(C)CC(=O)NCc2ccc(F)cc2)c(OC)c1 (stereo not drawn)	x	x	-4%	4%	x	13%	x	2%
COc1ccccc1/C=N/NC(=S)Nc1cccnc1	7%[46.1 µM]	x	-11%	-13%	x	6%	-10%	3%
O=C(CCc1c[nH]c2ccccc12)NC(Cc1ccccc1)C(=O)O (stereo not drawn)	-6%[46.1 µM]	x	-11%	14%	x	0%	4%[46.1 µM]	-2%
Cc1ccc(-c2nc(C#N)c(NCCCn3ccnc3)o2)cc1	u	x	57%[activator]	8%	x	-1%	u	0%
COc1cc2c(cc1OC)CN(c1ccc([N+](=O)[O-])cc1C#N)CC2	u	7%	32µM*	-10%	-8.2%	6%	-17%	-21%
COc1ccccc1C=CC(=O)C=Cc1ccccc1OC	u	x	u	-18%	x	x	4.5µM*	x
CC(/C=N/Nc1nnc(C)c(=O)[nH]1)=C\c1ccccc1	u	7%	x	-13%	2.0%	27%	u	-15%
CCOc1ccc(NC(=O)CN(C)C(=O)c2sccc2-c2ccccc2)cc1OCC	u	x	-24%	-12%	x	x	3%	0%
COc1ccc(/C=N/NC(=O)CSc2nnc(C)n2-c2ccccc2)c(OC)c1OC	u	5%	u	7%	-4.3%	u	u	5%
OCC[C@@H]1C[C@@H](O)[C@H](O)[C@@]2(Cc3ccccc3CO2)O1	x	x	u	0%	x	-13%	x	-3%
c1ccc(CCCN2CCN(c3ccccn3)CC2)cc1	x	x	-18%	-5%	x	12%	x	4%
COC(=O)c1cc(C)[nH]c2c(C)cc3nc4ccccc4c3c12	u	x	u	-7%	x	-51%	22%[46.1 µM]	-4%
CCc1oc2ccccc2c1C(=O)CCN1CCCCC1	-23%	-12%	-13%	u	-8.5%	-32%	u	-2%
CCCCn1c(O)c(C(C)=Nc2ccc(C(=O)O)cc2)c(=O)[nH]c1=O	8%[46.1 µM]	0%	15%	21%	-2.1%	-58%	-22%	-5%
COc1ccc(N2CCN(C(=O)CN(C)S(=O)(=O)c3cc(C)ccc3OC)CC2)cc1	0%[46.1 µM]	x	5%	-5%	x	6%	2%[46.1 µM]	0%
CCN(Cc1ccccc1)C(=O)Cc1ccc(OC)c(S(=O)(=O)N2CCOCC2)c1	-10%	x	-17%	-9%	x	x	-8%	6%
O=C(COC(=O)/C=C/c1cccs1)Nc1cccc(S(=O)(=O)N2CCCC2)c1	-15%[46.1 µM]	x	-12%	-6%	x	x	4%	-2%

The results go on:
SMILES	MARV entry inh	Cruzain inh noDet	StopGo reporter	RE007 growth inh	Cruzain Triton	NS1 inh	LASV entry inh	SARS PLpro yeast
O=C(/C=C/c1cccc(C(F)(F)F)c1)OCC(=O)N1CCN(c2ccccc2)CC1	0%	x	-8%	12%	x	x	-2%	3%
N#C/C(=C(/O)c1ccc(Cl)c([N+](=O)[O-])c1)c1nc2ccccc2[nH]1	x	x	-24%	6%	x	-3%	x	-1%
COc1cc(C2c3cc4c(cc3CC3COC(=O)C32)OCO4)cc(OC)c1O (stereo not drawn)	u	x	-12%	18%	x	x	u	x
O=C(COC(=O)C1CCN(/C=C/C(=O)C(F)(F)F)CC1)Nc1ccccc1	u	-1%	-7%	-6%	-6.4%	1%	2%	1%
O=c1[nH]c2cc([N+](=O)[O-])c([N+](=O)[O-])cc2[nH]c1=O	u	6%&-6%	8%&-17%&9%	3%	-10%&-8.9%	-3%&5%	1%	0%
